Bioassay records from PubChem BioAssay.
D2 PAM = human D2 receptor positive allosteric modulation | 360,000 tested, 0.23% active | P14416 | DiscoveRx D2 beta-arrestin cells, luminescence, 90 min; 100% = 57 uM dopamine signal | AID 624464 | potentiation, % (concentration not given with the values); active = potentiation of 50% or more; inconclusive = 30% to 50%; inactive = 30% or less;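 note: compound concentration not given in the record; tested on top of an EC20 dose of dopamine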
Target sequence (P14416 whole entry, looked up): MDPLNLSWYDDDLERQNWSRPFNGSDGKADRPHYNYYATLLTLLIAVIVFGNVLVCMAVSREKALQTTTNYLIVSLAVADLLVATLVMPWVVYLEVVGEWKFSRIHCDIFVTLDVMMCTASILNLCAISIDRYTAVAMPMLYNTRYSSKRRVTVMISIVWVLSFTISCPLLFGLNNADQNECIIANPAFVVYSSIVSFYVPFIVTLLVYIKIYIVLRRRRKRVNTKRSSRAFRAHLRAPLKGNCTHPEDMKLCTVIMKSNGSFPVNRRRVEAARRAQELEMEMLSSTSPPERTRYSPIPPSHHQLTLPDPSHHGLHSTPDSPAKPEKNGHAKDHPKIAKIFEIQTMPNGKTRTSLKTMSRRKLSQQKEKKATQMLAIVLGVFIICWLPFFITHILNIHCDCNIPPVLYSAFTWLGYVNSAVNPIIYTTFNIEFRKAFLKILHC
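PathHunter beta-arrestin assay in DiscoveRx D2 cells. Compounds were added with an EC20 of dopamine (50 nM final) for 90 min at 37 deg C. Luminescence was read 1 h after detection reagent, with 57 uM dopamine as the EC100 control.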
TRPML1 inh = inhibitors of human TRPML1 channel; Q9GZU1; TRPML1-inducible cells, Ca2+ dye fluorescence, FDSS; hits give low values; inhibition of EC80 agonist-evoked calcium signal; activity change, negative = inhibition, % (concentration not given with the values); 390,000 tested, 0.02% active; in the data active means activity change below about -50%; inconclusive means about -30% to -50%; inactive means above about -30%;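 note: stimulus is agonist 54-4 at its EC80 concentration; % is set by controls: 0 for no effect and ±100 for the full control effect; compound concentration not given in the record; the text of the record puts the active cut at -80%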
Target sequence (Q9GZU1 whole entry, looked up): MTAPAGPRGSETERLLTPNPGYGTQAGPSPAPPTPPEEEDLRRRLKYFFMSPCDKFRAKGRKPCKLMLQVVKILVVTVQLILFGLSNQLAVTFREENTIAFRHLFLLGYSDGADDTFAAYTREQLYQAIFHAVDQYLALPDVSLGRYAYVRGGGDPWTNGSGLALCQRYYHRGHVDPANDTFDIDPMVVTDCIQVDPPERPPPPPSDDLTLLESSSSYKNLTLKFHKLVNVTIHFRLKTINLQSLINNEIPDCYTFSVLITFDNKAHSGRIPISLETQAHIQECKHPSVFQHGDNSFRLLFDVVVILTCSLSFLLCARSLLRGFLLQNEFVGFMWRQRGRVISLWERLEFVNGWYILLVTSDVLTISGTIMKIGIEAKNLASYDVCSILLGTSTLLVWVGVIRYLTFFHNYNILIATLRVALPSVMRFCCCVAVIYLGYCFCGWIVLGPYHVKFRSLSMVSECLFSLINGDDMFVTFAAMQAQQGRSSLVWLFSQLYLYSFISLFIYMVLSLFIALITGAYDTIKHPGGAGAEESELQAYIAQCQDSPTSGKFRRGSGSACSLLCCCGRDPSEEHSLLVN
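Tet-induced TRPML1-DL cells loaded with Ca8 no-wash calcium dye were read kinetically on FDSS. Compound addition was followed by EC80 agonist 54-4 (4 uM final); inhibition was read over 110 s.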
TRPML1 ag = agonists of human TRPML1 channel; Q9GZU1; TRPML1-expressing cells, Ca2+ dye fluorescence, FDSS; host cell line not named in the record; reference of the full effect not given here; activation, % (concentration not given with the values); 410,000 tested, 0.12% active; AID 624414; in the data active = activation above about 50%; inconclusive = about 30% to 50%; inactive = below about 30%; note: 0% is about no effect; the text of the record puts the active cut at 80%
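Tetracycline-induced TRPML1-DL cells are seeded and incubated overnight before loading with a no-wash Ca2+ dye and quencher. Agonist activity is taken from the 110 s fluorescence read following compound pin-transfer on an FDSS, before EC80 54-4 challenge.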
TRPV1 PAM = enhances activation of the human vanilloid receptor TRPV1; AID 540277; Q8NER1; TRPV1-expressing cells, Fluo-8 calcium influx, capsaicin EC20 potentiation; host cell line not named in the record; control for the full effect not named in the record; 320,000 tested, 0.02% active; potentiation, % at 8.33 µM; active means potentiation above 80%; inconclusive means 30% to 80%; inactive means below 30%; note: 0% is about no effect
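TRPV1-expressing cells were cultured overnight at 35.5C and loaded with Fluo-8 calcium dye for 40 to 90 min at room temperature. After a 10 s baseline, compound was added and calcium influx was read kinetically for 3 min (ex 480/em 520 nm).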
CtBP-E1A blk = inhibitors of CtBP/E1A interaction | AlphaScreen GST-E1A/His-CtBP binding, 1536-well; hits give low values; control for the full effect not named in the record | activity change, % (concentration not given with the values) | 340,000 tested, 0.49% active; in the data active means activity change below about -65%; inconclusive means about -30% to -65%; inactive means above about -30%; note: % is set by controls: 0 for no effect and ±100 for the full control effect
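Homogeneous bead-based format: GST-tagged E1A captured on glutathione donor beads, His-tagged CtBP on nickel acceptor beads; compounds precede bead addition by 2 h at 37 °C.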
Six1-Eya2 inh = inhibitors of human Six1/Eya2 interaction; Q15475+O00167; AlphaScreen GST-Six1/His-Eya2 binding, biochemical; hits give low values; control for the full effect not named in the record; activity change, % (test concentration not listed); 360,000 tested, 0.56% active; AID 651725; in the data active = activity change below about -65%; inconclusive = about -30% to -65%; inactive = above about -30%; note: % is set by controls: 0 for no effect and ±100 for the full control effect; compound concentration not given in the record
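AlphaScreen luminescence read after one hour at 37 °C in darkness. Pin-transferred compounds met GST-Six1 and His-Eya2 protein (5X stock 250 nM/500 nM) plus glutathione donor and Ni-chelate acceptor beads (5X, 50 ug/mL).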
The depositor's hits bear a star; ? = inconclusive; · = not tested or not shown; & = joins results of further samples.

SMILES	D2 PAM	TRPML1 inh	TRPML1 ag	TRPV1 PAM	CtBP-E1A blk	Six1-Eya2 inh
COc1ccc(C(CCNCc2ccccc2)c2ccc(F)cc2)cc1 (stereo unspecified)	-30	36	0.2	-9	1	16
COCCCNC(=O)Cn1ncc2c(=O)oc3ccccc3c21	15	4	-0.3	3	2	-2
Cc1csc(NC(=O)c2cc3c(s2)CCC3)n1	1	9	1.4	-19	5	2
CCc1noc(C)c1C(=O)N(CC)c1nc2c(C)cccc2s1	11	-8	2.1	1	11	4
COc1ccc(S(=O)(=O)c2ccc(OC)cc2)cc1	0	-5	-0.5	-23	2	4
CCc1ccccc1NC(=O)c1nnn(CC(=O)Nc2ccccc2C)c1N	-3	-1	-0.8	·	2	7
O=C(CN1CCN(Cc2ccc(Cl)cc2)C1=O)NCc1cccs1	-10	13	-0.3	-13	-2	6
O=C(NCCCN1CCN(CCCNC(=O)c2ccc3c(c2)OCO3)CC1)c1ccc2c(c1)OCO2	-5	3	0.6	-9	-2	6
Cc1ccc(C(=O)CSc2nnc(Cn3nnc4ccccc43)n2C)cc1	4	4	0.4	13	-10	-1
COc1ccc2c(c1)C(c1ccc([N+](=O)[O-])cc1)=NNC(c1ccco1)=N2	-3	0	1.8	·	5	?
CCCCCOC(=O)CSc1nc2c(c(=O)[nH]c(=O)n2C)n1Cc1ccc(Cl)cc1	-3	42	0.1	11	3	-2
COC(=O)CCc1c(C)[nH]c(=S)[nH]c1=O	-9	0	1.9	14	-3	-1
COc1ccc(SCCN2CC[C@@H](O)CCC2=O)cc1	-9	-7	-0.1&-0.8	-14	5	4
COc1ccc2c(C)c(CCC(=O)NC3CC3)c(=O)oc2c1C	-8	·	·	-15	12	5
C[C@@H]1CCCCO[C@H](CN(C)Cc2ccc3c(c2)OCO3)[C@H](C)CN([C@@H](C)CO)C(=O)c2cc(NC(=O)c3ccccc3)ccc2O1	-16	28	0.5	·	-3	46
CCOc1ccc(NS(=O)(=O)c2cc(C(=O)NCCCN3CCOCC3)ccc2C)cc1	-16	-7	-1.5	5	·	-5
CCOC(=O)C1CCC(CNCc2ccc(Cl)cc2)CC1 (stereo unspecified)	-16	12	0.4	-5	7	3
CCCNCc1cc(OCC)c(OCC(=O)Nc2ccccc2)cc1Br	0	-15	0.9	2	1	-1
CC(C)NC(=O)C1(C)CCN1C(=O)c1cccn1C (stereo unspecified)	-6	·	-0.8	·	2	-1
O=C(N/N=C/c1cc2c(cc1Br)OCO2)c1ccccn1	1	1	-0.5	-1	2	6
CCC(=O)Nc1ccccc1Nc1cc(C#N)c(C#N)cc1[N+](=O)[O-]	74*	6	-0.1	10	0	-2
Cc1cccn2c(=O)cc(CSc3nnc(NC(=O)COc4ccccc4)s3)nc12	·	57	2.0	4	·	·
COc1cc(NC(=S)NCCN2CCOCC2)cc(OC)c1OC	-1	-10	0.0	5	0	-12
COC(=O)C1=C(C(=O)OC)[C@@H]2N(C)c3ccc(OC)cc3[C@@]23C[C@@H](C(=O)OC)N(C(=O)c2cccs2)C3=N1	-12	-5	-0.5	-15	4	-5
O=C(N1CCN(CCO)CC1)N1c2ccccc2CCc2ccccc21	-19	-6	-0.5	-7	·	6

(next part)
SMILES	D2 PAM	TRPML1 inh	TRPML1 ag	TRPV1 PAM	CtBP-E1A blk	Six1-Eya2 inh
COC(=O)CN(C(=S)Nc1ccc(F)cc1)C1CC(=O)N(c2ccc(OC)cc2)C1=O (stereo unspecified)	-8	-7	1.0	3	1	2
O=C(OC1CCOC1=O)c1ccc(-c2nc3ccccc3s2)s1 (stereo unspecified)	9	-3	-0.1	0	-3	3
O=C(O)CN1C(=O)/C(=C/c2ccccc2Br)Oc2ccccc21	-7	?	1.1	-2	-7	3
CCc1nc2ccc(C(=O)NCc3ccc4c(c3)OCO4)cn2c1N(CC)CCN(C)C	-6	·	-0.5	·	3	-5
C#CCN1N=C(c2ccc(C)cc2)CSC1=O	-9	20	4.5	·	-6	2
CCOC(=O)c1cnn(-c2ccccn2)c1N	-3	1	-0.1	-9	5	3
CN(CC(=O)Nc1ccc(Cl)c(C(F)(F)F)c1)C(=O)c1ccccc1SCC(=O)N1CCCC1	-5	-4	0.0	·	-13	-1
O=C(O)CSc1nnc(CSc2nc3ccccc3s2)n1-c1ccccc1	0	-3	-0.6	2	4	1
Cc1ccc(S(=O)(=O)Nc2cc(C(=O)O)ccc2N2CCCCC2)cc1	19	-16	-0.1	0	2	3
Cc1ccc(NCCN(C)C)c2c(=O)c3cc(O)ccc3sc12	-32	18	1.7	·	-68*	?
CCC(NC(=O)C1CCCC1)c1ccc(C)cc1 (stereo unspecified)	-1	-14	1.0	0	1	10
Cc1ccc(Cl)cc1N1CCN(S(=O)(=O)c2ccc3c(c2)CC(=O)N3C)CC1	6	7&-8	-0.6&-0.1	12	·	-11
COC(=O)c1c(S(N)(=O)=O)c2ccccc2n1C	2	-6	-0.1	9	3	-1
CCOc1cc(C(=O)NCCN2C(=O)S/C(=C\c3cccnc3)C2=O)cc(OCC)c1OCC	-6	-2	0.7	-2	·	-8
Cc1ccc(-n2ncc3c(NCC4CCCO4)ncnc32)c(C)c1 (stereo unspecified)	-19	4	-0.1	·	-1	-12
CCc1cc2c(=O)oc(-c3ccc(F)cc3)nc2s1	9	·	·	-8	·	1
O=C1c2ccccc2C(=O)N1CCCCN(C(=O)c1cc([N+](=O)[O-])ccc1Cl)c1ccc(Cl)cc1	-2	-4	0.7	-30	-2	-17
COc1cccc(N(CC(=O)Nc2cccnc2)S(C)(=O)=O)c1	-5	11	0.0	11	3	5
CC1CC(C)CN(CCCNC(=O)Cn2ncc3c(=O)oc4ccccc4c32)C1 (stereo unspecified)	-11	11	-0.4	0	-8	-1
CC1CCc2nn(CC(=O)N3CCN(C(=O)c4ccco4)CC3)cc2C1 (stereo unspecified)	2	13	0.3	4	-2	0
CCc1nc2c(OCCc3cccc(OC)c3)cccn2c1N(C=O)Cc1ccc(OC)cc1	1	·	-0.2	·	-11	-1
NNC(=O)/C(=C\c1ccco1)NC(=O)c1ccco1	-3	7	0.5	-7	·	4
CCCCc1nnc(NC(=O)C(C)Sc2nc(N)cc(=O)[nH]2)s1 (stereo unspecified)	-6	?	1.9	?	10	9
O=C(O)CC(Cc1ccccc1)(C(=O)O)c1ccccc1 (stereo unspecified)	-5	4	-0.4	-2	12	3
Cc1ccc(C(=O)N2CCN(Cc3ccc4c(c3)OCO4)CC2)o1	-35	4	2.0	-25	-6	-1

Another view of 5 compounds above:
| SMILES | D2 PAM | TRPML1 inh | TRPML1 ag | TRPV1 PAM | CtBP-E1A blk | Six1-Eya2 inh |
| --- | --- | --- | --- | --- | --- | --- |
| O=C(O)CN1C(=O)/C(=C/c2ccccc2Br)Oc2ccccc21 | -7 | ? | 1.1 | -2 | -7 | 3 |
| CCc1nc2ccc(C(=O)NCc3ccc4c(c3)OCO4)cn2c1N(CC)CCN(C)C | -6 | · | -0.5 | · | 3 | -5 |
| C#CCN1N=C(c2ccc(C)cc2)CSC1=O | -9 | 20 | 4.5 | · | -6 | 2 |
| CCOC(=O)c1cnn(-c2ccccn2)c1N | -3 | 1 | -0.1 | -9 | 5 | 3 |
| CN(CC(=O)Nc1ccc(Cl)c(C(F)(F)F)c1)C(=O)c1ccccc1SCC(=O)N1CCCC1 | -5 | -4 | 0.0 | · | -13 | -1 |

The list goes on:
SMILES	D2 PAM	TRPML1 inh	TRPML1 ag	TRPV1 PAM	CtBP-E1A blk	Six1-Eya2 inh
CCN(CC)C(=O)C1CC(=O)N(c2ccc(F)c(Cl)c2)C1 (stereo unspecified)	-15	2	-0.2	-25	-3	6
O=C(CCC(=O)N1CCN(S(=O)(=O)c2cccc(F)c2)CC1)c1cccs1	-1	-27	-0.2	-2	-5	0
Cc1ccc(S(=O)(=O)Oc2ccc(/C=C3\N=C(c4cccc(C)c4)OC3=O)cc2)cc1	-15	-7	-0.5	-8	1	7
CN(C(=O)CSc1nnc(CN2CCCC2)n1Cc1ccccc1)c1ccccc1	-25	7	-1.2	14	6	-1
CCOc1ccccc1NC(=O)C1CCN(C(=O)C2CC(=O)N(c3ccc(C)cc3)C2)CC1 (stereo unspecified)	-2	-1	0.3	-1	-11	5
CCOC(=O)/C=C1/SCC(=O)N1CCOc1cccc(Br)c1	-2	17	1.0	·	12	0
COc1ccc(NC(=O)C2CCCN(S(C)(=O)=O)C2)cc1Cl (stereo unspecified)	-3	-5	-0.4	3	7	-1
CC(C)(C)NC(=O)C(c1ccc(F)cc1)N(Cc1ccco1)C(=O)Cn1nnc(-c2cccs2)n1 (stereo unspecified)	11	3	0.8	-8	0	-1
CCOC(=O)C1=C(C)NC(=O)NC1c1ccc(OC(=O)c2ccco2)cc1 (stereo unspecified)	-3	9	-0.1	-21	9	-1
COc1ccc(CNC(=O)c2ccc(Cl)c(S(=O)(=O)N3CCOCC3)c2)cc1OC	2	5	1.1	-27	3	0
Cc1cc(C)n(C(=O)c2ccc(C)c(S(=O)(=O)N3CCCCC3)c2)n1	-11	16	1.1	-5	4	7
CCCCCCCN1CCC(=O)N([C@H](CO)c2ccccc2)CC1	-26	-9	0.9	-3	0	1
O=C(O)Cn1c2c(c3ccccc31)CSc1ccc(Cl)cc1-2	-1	2	0.1	1	1	-2
CCOC(=O)C1=C(C)Nc2ccccc2N=C1NC(=O)C1CCN(C(=O)c2ccccc2C)CC1	-3	9	-0.7	·	-1	-3
CN(c1ccc([N+](=O)[O-])cc1C(N)=O)C1CCCCC1	-6	-9	-0.2	15	6	-2
CN1CCN(S(=O)(=O)c2cccc(C(=O)NCCOc3ccccc3F)c2)CC1	-6	19	0.3	2	-5	-10
CC(=O)NC1(NC(C)=O)CCN(C)CC1	-20	13	0.6	-1	11	3
CCC(NC(=O)Nc1cc(OC)c(OC)c(OC)c1)(C(F)(F)F)C(F)(F)F	-12	-5	0.0	-16	0	11
COc1ccc(C)cc1S(=O)(=O)N(CC(=O)Nc1cccc([N+](=O)[O-])c1)c1cc(C)cc(C)c1	-16	17	-0.2	18	21	-2
CCCCc1nnc(SCC(=O)Nc2nccs2)n1C	8	7	-0.2	6	6	2
CCCNC(=O)Cn1nc(C)n2c(cc3cc(F)ccc32)c1=O	-6	34	0.5	-3	11	0
COc1ccc(C2=NO[C@@H]3[C@@H]4C[C@@H]([C@H]5C(=O)N(C)C(=O)[C@@H]45)[C@H]23)c(OC)c1	-1	1	2.9	2	-3	-1
COc1ccc(C(O)(c2ccccc2)C(C(=O)O)c2ccccc2)cc1 (stereo unspecified)	0	-10	-1.0	·	13	1
CCOC(=O)CSCC(=O)Nc1nnc(-c2cccc([N+](=O)[O-])c2)s1	0	9	-0.5	11	4	0
CCOc1cccc(OCCNC2CCCC2)c1	-13	-5	0.2	-4	-21	-6
CCn1ncc(Br)c1C(=O)Nc1ccc(C(C)C)cc1	4	-8	3.8	-3	-19	6
O=S(=O)(c1ccccc1)c1nc(-c2ccco2)oc1NCCCn1ccnc1	-5	-1	-0.2	-6	12	6
COc1cc(SC)ccc1C(=O)NNC(=O)c1cc(C)oc1C	2	3	0.8	?	-5	-2
O=C(NN=Cc1cc(=O)[nH]c(=O)[nH]1)c1ccncc1	2	-11	-0.1	·	11	-1
COc1ccc(S(=O)(=O)Nc2cccc3c2O[C@H](CN(C)C(=O)Nc2ccccc2)[C@@H](C)CN([C@H](C)CO)C3=O)cc1	-4	24	-0.3	·	6	3
